Screening data as filed in PubChem.
ALR H2O2 inh = human ALR oxidase inhibition via reduced H2O2 | P55789 | purified ALR, DTT oxidation, H2O2 HRP-luminol luminescence | inhibition, % (concentration not given with the values) | 3.8% of 290,000 active | AID 485317;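 active means mean and each replicate at 75% or more; inconclusive means only one of the two met; inactive means neither met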;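 further: stock transfer was 7.5 nL into about 7.5 µL; 0% = neutral wells and 100% = wells with inactivated enzyme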
Target sequence (P55789 whole entry, looked up): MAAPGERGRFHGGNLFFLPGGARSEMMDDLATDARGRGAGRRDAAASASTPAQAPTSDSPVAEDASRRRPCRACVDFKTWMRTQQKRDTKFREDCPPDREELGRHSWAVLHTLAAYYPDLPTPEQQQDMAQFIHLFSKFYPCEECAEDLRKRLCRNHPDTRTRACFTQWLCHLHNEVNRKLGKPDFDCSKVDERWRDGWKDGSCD
FGF22 binding = FGF22 (human) thermal shift binding; recombinant FGF22 thermal shift, SYPRO orange fluorescence; percent of sucrose octasulfate shift, DMSO zero; calls only at 9.99 µM; 1.5% of 340,000 active; AID 651658;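 active means melting point raised past a set limit in the mean and every replicate; inconclusive means no clear call; three in four hits are not shown here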
Target sequence (Q9HCT0 whole entry, looked up): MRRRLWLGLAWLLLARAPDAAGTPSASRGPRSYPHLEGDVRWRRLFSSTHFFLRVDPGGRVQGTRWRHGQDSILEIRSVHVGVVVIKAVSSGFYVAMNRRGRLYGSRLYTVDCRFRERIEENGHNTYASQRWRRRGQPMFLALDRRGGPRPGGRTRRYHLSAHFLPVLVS
Ecoli rRNA inh = inhibits bacterial ribosomal RNA function over humanized ribosomes | 1.6% of 350,000 active | GFP signal change (wild-type ribosome), % (concentration not given with the values) | E. coli WT GFP vs humanized-ribosome RFP mutants, fluorescence, 24 h; active compounds read low; DMSO median 0, no signal -100;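 active means significant combined selectivity score with lowered wild-type GFP, culture density cut under 30%, mutant RFP and density less affected; inactive means any of these conditions unmet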; further: one replicate is shown; some compounds called inactive have numbers as strong as hits
RanGTP-Imp inh = inhibitors of RanGTP-importin-beta interaction, primary screen, biochemical, FRET, CFP-Ran, YFP-importin-beta, homogeneous | inhibition, % (no concentration beside the values) | cell-free CFP-Ran/YFP-importin-beta FRET ratio | 1.1% of 300,000 active | AID 2216;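 active means most replicates above 15%; inconclusive means exactly half above 15%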;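 further: 0% = DMSO wells and 100% = Ran loaded with GDP instead of GTP; wells of about 40 µL received 100 nL stock; the first replicate is given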
Beta cell apopt = beta cell apoptosis inhibition. INS-1E cytokine-induced death, ATP luminescence, 48 h; percent of positive-control rescue, neutral wells zero. protection from apoptosis, % (no concentration beside the values). 0.8% of 300,000 active. AID 435005;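 active means all replicates at 75% or more, or half of them and the mean; inconclusive means half reach 75% but not the mean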;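 further: 0% = cytokine-treated negative control wells and 100% = positive control rescue; higher means more ATP so stronger rescue from cytokine killing; wells of about 40 µL received 100 nL stock; the first replicate is given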
Calb FLC = C. albicans growth modulation with fluconazole. 0.57% of 300,000 active. C. albicans CaCi-2 (fluconazole-resistant clinical isolate) + fluconazole, Alamar Blue growth, 48 h. growth inhibition, % (test concentration not listed);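 active means most replicates above 75%; inconclusive means exactly half above 75%; inactive means most below 75%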;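 further: all wells also contain fluconazole at 8 µg/ml as a sub-toxic cotreatment; 0% = median of DMSO wells and 100% = median of geldanamycin control wells; wells of about 8 µL received 7.5 nL stock; the first replicate is given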
T cruzi inh = T. cruzi replication inhibition. T. cruzi beta-gal in NIH3T3, luminescence, 90 h. inhibition, % (test concentration not listed). 1.4% of 300,000 active. AID 1885;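 active means mean inhibition across valid replicates above about 55%, limit read from the data; inconclusive means mean below that limit but half or more replicates reach it; inactive means mean below it, under half of replicates reach it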;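 further: signal also drops with host cell toxicity which is not excluded here; 0% = plate median of DMSO wells and 100% = zero luminescence signal; higher percent means less beta-gal luminescence so fewer parasites; stock transfer was 50 nL into about 50 µL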
MLL AF4-AF9 inh = blocks AF4 peptide binding to human AF9. P42568. AlphaScreen, biotin-AF4 peptide binding to FLAG-AF9. inhibition, % at 10 µM. 0.47% of 350,000 active. AID 651704;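 active means every replicate reaching a set inhibition limit, whatever the replicate mean, cut at about 25% in these data; inconclusive means mean inhibition reaches that limit but some replicates miss it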;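 further: 0% = plate neutral control median and 100% = total signal loss; the record names both 10 and 1 µM as test concentration; the first replicate is given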
Target sequence (P42568 whole entry, looked up): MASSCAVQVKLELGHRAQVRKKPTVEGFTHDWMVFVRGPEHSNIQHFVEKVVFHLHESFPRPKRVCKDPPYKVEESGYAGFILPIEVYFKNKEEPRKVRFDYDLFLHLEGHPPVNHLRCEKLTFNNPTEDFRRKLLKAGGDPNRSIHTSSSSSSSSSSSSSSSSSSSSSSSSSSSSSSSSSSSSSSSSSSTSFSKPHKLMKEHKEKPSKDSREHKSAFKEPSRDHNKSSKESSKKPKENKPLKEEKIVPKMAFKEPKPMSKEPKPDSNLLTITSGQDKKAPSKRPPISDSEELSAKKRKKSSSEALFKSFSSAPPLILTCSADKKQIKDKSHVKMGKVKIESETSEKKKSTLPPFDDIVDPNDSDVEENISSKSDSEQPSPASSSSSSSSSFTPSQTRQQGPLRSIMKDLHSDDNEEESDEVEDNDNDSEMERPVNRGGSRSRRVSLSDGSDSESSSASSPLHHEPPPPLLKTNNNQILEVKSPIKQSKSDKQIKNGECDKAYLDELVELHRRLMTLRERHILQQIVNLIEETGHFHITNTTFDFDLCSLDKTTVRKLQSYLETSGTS
Ecoli rRNA inh OD600 = further read-out of Ecoli rRNA inh, marked with its call; OD600 change, %; measured here: OD600 growth;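 optical density of the mix in the first replicate; 0 = DMSO median and -100 = no signal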
Ecoli rRNA inh RFP = second read-out of Ecoli rRNA inh, no call of its own (marks repeat the call); RFP signal change, %; measured here: RFP humanized mutant strains;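 first replicate; 0 = DMSO median and -100 = no signal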
* marks the source's active call; other numbers are inactive results; i = inactive; u = inconclusive; x = no result given. An excerpt; the hit share may differ from the screen's.

Sequence of screens: T cruzi inh, RanGTP-Imp inh, Ecoli rRNA inh RFP, Ecoli rRNA inh, FGF22 binding, ALR H2O2 inh, MLL AF4-AF9 inh, Calb FLC, Beta cell apopt, Ecoli rRNA inh OD600
#1 O=C(O)CCC1c2cc3c4cc2OC2Oc5cc6c(cc51)C(CCC(=O)O)c1cc5c7cc1OC(O6)c1cc6cc(c1)Oc1cc(cc(C(=O)O)c1)Oc1cc8cc(c1)C(Oc1cc(c(cc1C5CCC(=O)O)C3CCC(=O)O)OC(O4)c1cc(cc(c1)Oc1cc(cc(C(=O)O)c1)O8)Oc1cc(cc(C(=O)O)c1)Oc1cc(cc2c1)Oc1cc(cc(C(=O)O)c1)O6)O7 (stereo not drawn)
    -9.9, u, x, x, x, 98.4*, x, 0.4, -9.7, x
#2 CCOC(=O)c1cc(C#N)c(SCc2cccc3ccccc23)nc1C
    15.8, 3.9, x, x, x, -11.0, x, -3.4, 8.0, x
#3 COc1ccc(N(CC(=O)NCCC2=CCCCC2)S(=O)(=O)c2ccc(C)cc2)cc1
    61.9*, -1.0, x, x, x, -1.0, x, -2.8, 2.7, x
#4 CC(C)(C)c1ccc(OCC(=O)N/N=C/C2CC=CCC2)cc1 (stereo not drawn)
    -13.3, 2.9, -1.4, -1.6, i, x, -3.1, 0.4, -1.8, -13.7
#5 O=C(c1cccc(F)c1)N1CCN(c2cccc(C(F)(F)F)c2)CC1
    1.7, 3.0, x, x, x, x, x, -6.9, -3.1, x
#6 CCCc1noc2c1C(c1cc(Br)ccc1F)C(C#N)=C(N)N2 (stereo not drawn)
    -6.9, -1.3, -17.1, -54.8, i, 4.4, -1.5, 4.1, -12.4, -67.8
#7 COCCN1CN=C(NS(=O)(=O)c2ccc(C)cc2)NC1
    -2.6, 2.6, -0.2, -0.4, i, 0.5, -2.6, 9.9, -4.2, -1.4
#8 CCOC(=O)c1cc(-c2csc(N/N=C/c3ccccc3Cl)n2)on1
    x, 42.4*, -0.4, 6.2, i, 2.5, -4.2, 26.4, x, 1.5
#9 CCN(C(=O)CSc1nncn1-c1ccccc1)c1c(N)n(Cc2ccccc2)c(=O)[nH]c1=O
    -10.0, -1.1, -11.6, 4.1, i, -5.6, 15.6, -0.4, 2.5, 3.9
#10 Nc1cc(Cl)ccc1C(=O)OCC(=O)N1CCCC1
    -3.4, -2.5, 0.8, 8.5, i, -1.7, -4.3, -3.2, -8.2, 4.5
#11 COc1ccc(NC(=O)C2CCN(S(=O)(=O)c3cccc4cccnc34)CC2)cc1
    7.7, -0.9, 8.9, 6.3, i, -56.8, 13.7, -1.2, x, 11.8
#12 CCOc1ccc(CNC(=O)CCS(=O)(=O)c2ccc3c(c2)oc(=O)n3C)cc1
    5.2, 0.4, -0.5, 2.5, i, -5.3, -1.9, 2.0, -0.2, 13.1
#13 COc1ccc(Cn2nnnc2C(c2ccncc2)N2CCOCC2)cc1 (stereo not drawn)
    -13.5, u, x, x, x, -2.7, x, u, -1.4, x
#14 O=[N+]([O-])c1ccc2cn(-c3ccccc3)nc2c1
    1.5, 1.0, x, x, i, 1.9, -9.8, -4.9, 4.4, x
#15 C=CCn1c(SCC(=O)NCc2ccco2)nnc1-c1ccc2ccccc2n1
    -4.4, u, 9.3, -17.8, i, 4.4, 6.0, 8.6, -3.8, -9.9
#16 Cc1ccccc1Nc1nc(N)nc(CN2C(=O)NC3(CCCCC3C)C2=O)n1 (stereo not drawn)
    -16.8, 2.2, x, x, x, -2.9, x, 13.0, 0.0, x
#17 Nc1ccc(S(=O)(=O)NC(=O)c2ccccc2)cc1
    -3.4, -2.9, x, x, x, 2.1, 0.1, x, -8.6, x
#18 COc1ccc(Cl)cc1CNCCCSc1ncccn1
    34.1, -3.9, 0.4, 16.7, i, 3.1, 6.6, 5.3, -0.7, 5.2
#19 COc1ccc(-c2noc(CSc3nnc(Cc4ccccc4)n3-c3cccc(C)c3)n2)cc1OC
    36.1, -2.7, 1.3*, -26.2*, i, -23.8, -1.8, 51.6, x, -15.4*
#20 COc1ccc(-c2cc(C(F)(F)F)n3nc(C(=O)NCc4ccco4)c(Cl)c3n2)cc1
    -14.8, 1.9, x, x, x, -13.8, x, -5.5, 1.2, x

Next section.
Sequence of screens: T cruzi inh, RanGTP-Imp inh, Ecoli rRNA inh RFP, Ecoli rRNA inh, FGF22 binding, ALR H2O2 inh, MLL AF4-AF9 inh, Calb FLC, Beta cell apopt, Ecoli rRNA inh OD600
#21 CCN(CC)c1ccc(NC(=O)c2ccc(Br)o2)c(C)c1
    33.7, 2.5, x, x, x, 98.7*, x, -23.7, 4.8, x
#22 COc1ccc(C2CC(=O)C(C=NCCN3CCN(C(C)=O)CC3)=C(O)C2)cc1 (stereo not drawn)
    -12.2, 3.1, x, x, x, -3.0, x, -6.2, x, x
#23 CC(=O)Nc1cccc(OCCCNC(=O)c2cccc3ccccc23)c1
    10.6, -0.5, -0.2, -16.4, i, -8.1, 3.9, -3.3, -0.5, -9.8
#24 C/C(=N\NC(=O)c1nnn(-c2nonc2N)c1CN1CCOCC1)c1ccc(CC(C)C)cc1
    -9.6, 2.5, 0.5, 11.0, i, -6.4, 1.1, 0.2, -9.1, 16.0
#25 O=C(Nc1cccc(S(=O)(=O)NC2=NCCC2)c1)c1ccc(F)cc1F
    x, x, x, x, i, -7.5, -1.3, x, -5.4, x
#26 CCCCn1c(N)c(N(CC)C(=O)c2c(C)noc2C)c(=O)[nH]c1=O
    x, x, 1.6, 19.6, i, -2.6, -1.3, x, -8.8, 18.6
#27 CC1=C(C(N)=O)C(c2ccncc2)n2nc(-c3ccccc3Cl)nc2N1 (stereo not drawn)
    -11.1, 0.2, -0.3, 7.1, x, -5.4, -3.0, -2.9, -3.1, 12.3
#28 C=CC[C@@H](CC(=O)NCCO)C(=O)N[C@@H](C)COC(=O)[C@@H](CC=C)Cc1ccc(F)cc1
    x, x, 11.4, 8.0, i, -1.0, -10.0, x, 11.7, 3.2
#29 Cc1cccc(C)c1NC(=O)COC(=O)C1C2CC3OC(=O)C1C3C2 (stereo not drawn)
    -7.3, -0.4, -1.3, 8.3, i, -0.1, 1.9, -0.9, -6.5, 10.4
#30 Cc1ccc(F)c(NC(=S)Nc2cccc3ccccc23)c1
    6.8, 1.3, 4.1, 3.5, i, -22.6, 0.2, 11.2, 8.4, 6.7
#31 CN(CC(=O)Nc1ccc(N2CCOCC2)cc1)C(=O)CC(c1ccccc1)c1ccccc1
    x, x, -1.9, -17.0, i, x, 8.1, 2.1, -20.8, -4.1
#32 NNC(=O)c1cc(S(=O)(=O)N2CCOCC2)c[nH]1
    x, x, -10.1, -2.3, i, 4.9, 4.6, x, -2.6, 9.7
#33 CC(=O)/C(=N\Nc1cccc(Cl)c1)Sc1nnc(-c2ccccc2)n1-c1ccccc1
    -8.8, 0.7, x, x, i, 14.4, 1.9, -33.0, -9.4, x
#34 O=C(C(Cc1ccccc1)N1C(=O)c2ccccc2C1=O)N1c2ccccc2CCc2ccccc21 (stereo not drawn)
    30.5, -0.8, 1.2, 6.5, i, -27.3, 4.2, 23.4, 25.6, 3.1
#35 CS(=O)(=O)N1CCC(C(=O)Nc2ccccc2Br)CC1
    -2.2, 1.6, -1.1, 7.5, i, -5.2, 0.4, -1.4, -4.2, 4.3
#36 NC(=O)C1CCN(C(=O)c2cc3ccccn3n2)CC1
    -12.7, u, -2.9, 6.1, i, -3.4, 3.3, 1.3, -5.1, 12.4
#37 CCOC(=O)COc1cccc2c(=O)n(CC(=O)NCc3ccccc3)ccc12
    5.4, 1.2, -1.8, 12.8, i, -0.8, -31.7, 1.2, 31.0, 5.7
#38 Cc1noc(NS(=O)(=O)c2ccc(NC(=O)CC(C)C)cc2)c1C
    3.8, 2.4, -0.2, 6.5, i, 8.7, -3.2, -2.6, x, 10.1
#39 COc1ccc(-c2ccc(S(=O)(=O)N3CCCC3)cc2)cc1
    13.8, -4.7, 0.7, 9.6, i, -2.4, -3.7, -14.9, 2.5, 7.6
#40 COc1ccc2[nH]c(C)c(C(=O)CN3CCN(C(=O)c4ccco4)CC3)c2c1
    2.3, 0.0, x, x, x, -8.7, x, 1.9, -9.2, x

(continued)
Sequence of screens: T cruzi inh, RanGTP-Imp inh, Ecoli rRNA inh RFP, Ecoli rRNA inh, FGF22 binding, ALR H2O2 inh, MLL AF4-AF9 inh, Calb FLC, Beta cell apopt, Ecoli rRNA inh OD600
#41 Cn1c(=O)cc(Nc2ccccc2)c2c(=O)n(-c3ccccc3)c(=O)n(-c3ccccc3)c21
    8.5, 6.9, -1.5, -1.1, i, -2.7, x, 19.5, -1.0, 8.3
#42 Cc1ccc(S(=O)(=O)N2CCCCC2)cc1NC(=O)COC(=O)Cc1c(F)cccc1Cl
    25.2, -1.1, x, x, x, -35.6, x, -7.7, -1.1, x
#43 O=C(O)CN1C(=O)c2ccc(Oc3cccc4c3C(=O)N(CC(=O)O)C4=O)cc2C1=O
    -17.1, 1.1, x, x, x, 16.4, x, 26.8, 0.2, x
#44 Cc1sc2nc(-c3ccc(Br)cc3)oc(=O)c2c1C
    0.1, -0.7, x, x, x, 6.8, x, 2.9, 3.1, x
#45 CN1C(=O)c2ccc(C(=O)Nc3ccc(Br)cn3)cc2C1=O
    -8.1, 0.2, -0.5, 11.2, i, -0.3, -1.0, 0.2, -4.5, 11.2
#46 COc1ccc(C(=O)Cc2cc(OC)c(OC)cc2C(=O)c2ccccc2F)cc1OC
    4.7, 1.7, x, x, x, -17.1, 0.8, 21.6, -3.5, x
#47 CS(=O)(=O)c1ccccc1-c1nnc(NC(=O)COc2ccc(Cl)cc2)o1
    -5.8, 5.1, 4.1, -12.1, i, x, -15.2, 3.1, -5.9, -7.7
#48 O=CN1CCCN(Cc2nc(Cc3ccccc3F)no2)CC1
    -1.8, -0.3, 0.4, 2.9, i, 45.7, 1.1, 0.7, -2.8, 4.3
#49 Oc1ccc(C[C@H]2CNCCN2CCc2cccc3ccccc23)cc1
    -4.5, -6.8, 23.9, 8.6, i, 7.9, 3.4, -7.8, -2.7, 4.2
#50 COCCN(CC1CCCN(C2Cc3ccccc3C2)C1)C(=O)c1ccc(C(C)=O)cc1 (stereo not drawn)
    27.7, 0.6, 1.8, 13.8, i, x, 2.7, 30.4, 0.1, 4.8
#51 Cc1ccc(N2C(=O)CSC2c2c(F)cccc2Cl)cc1 (stereo not drawn)
    -10.9, 1.6, x, x, x, -0.1, x, 8.2, -1.5, x
#52 COc1cc2c(cc1OC)CN(C(=O)CSc1nc3[nH]ncc3c(=O)n1-c1ccccc1)CC2
    -11.3, -1.4, x, x, x, -1.9, x, -3.1, -5.2, x
